Screening results: PubChem BioAssay, Broad Institute
FGF22 binding: FGF22 (human) thermal shift binding. Q9HCT0. recombinant FGF22 thermal shift, SYPRO orange fluorescence; percent of sucrose octasulfate shift, DMSO zero. 1.5% of 340,000 active. calls only at 9.99 µM;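 active = melting point raised past a set limit in the mean and every replicate; three in four hits are not shown here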
Target sequence (Q9HCT0 whole entry, looked up): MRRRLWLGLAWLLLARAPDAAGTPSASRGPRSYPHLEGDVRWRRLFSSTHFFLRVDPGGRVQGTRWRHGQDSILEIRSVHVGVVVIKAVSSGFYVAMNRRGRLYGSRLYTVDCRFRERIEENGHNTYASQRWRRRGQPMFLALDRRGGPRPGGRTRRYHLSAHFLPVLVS
rRNA inh HTS: inhibits bacterial ribosomal RNA function over humanized ribosomes; E. coli WT GFP vs humanized-ribosome RFP mutants, fluorescence, 24 h; active compounds read low; DMSO median 0, no signal -100; GFP signal change (wild-type ribosome), % (test concentration not listed); 1.6% of 350,000 active;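 active = significant combined selectivity score with lowered wild-type GFP, culture density cut under 30%, mutant RFP and density less affected; inactive = any of these conditions unmet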; also: one replicate is shown; some compounds called inactive have numbers as strong as hits
rRNA inh HTS OD600: second read-out of rRNA inh HTS, no call of its own (marks repeat the call); OD600 change, %; measured here: OD600 growth;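 optical density of the mix in the first replicate; 0 = DMSO median and -100 = no signal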
rRNA inh HTS RFP: second read-out of rRNA inh HTS, no call of its own (marks repeat the call); RFP signal change, %; measured here: RFP humanized mutant strains;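 first replicate; 0 = DMSO median and -100 = no signal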
The depositor's hits bear a star; i = inactive. These rows are one share of the data; the hit share may differ from the screen's.

The opening four records (preview)
FGF22 binding,rRNA inh HTS,rRNA inh HTS OD600,rRNA inh HTS RFP,smiles
i,0.1,5.6,0.7,O=C(c1cccnc1)N1C[C@@H]2[C@H](c3ccccc31)[C@H](CO)N2C(=O)Nc1cccc(F)c1
i,-0.2,6.0,-1.2,COC(=O)C[C@@H]1CC[C@@H]2[C@@H](COc3ccc(NC(=O)c4cnccn4)cc3C(=O)N2C)O1
i,-1.2,-1.7,0.7,CO[C@@H]1CN(C)C(=O)c2cc(NC(=O)C3CCC3)ccc2OC[C@@H](C)N(Cc2ccccn2)C[C@@H]1C
i,-58.7,-79.1,-14.1,O=C(C[C@@H]1CC[C@H]2[C@@H](COC[C@H](O)CN2C(=O)Nc2ccc(Cl)c(Cl)c2)O1)NCc1ccc(F)cc1

The listing, from the first entry:
FGF22 binding,rRNA inh HTS,rRNA inh HTS OD600,rRNA inh HTS RFP,smiles
i,0.1,5.6,0.7,O=C(c1cccnc1)N1C[C@@H]2[C@H](c3ccccc31)[C@H](CO)N2C(=O)Nc1cccc(F)c1
i,-0.2,6.0,-1.2,COC(=O)C[C@@H]1CC[C@@H]2[C@@H](COc3ccc(NC(=O)c4cnccn4)cc3C(=O)N2C)O1
i,-1.2,-1.7,0.7,CO[C@@H]1CN(C)C(=O)c2cc(NC(=O)C3CCC3)ccc2OC[C@@H](C)N(Cc2ccccn2)C[C@@H]1C
i,-58.7,-79.1,-14.1,O=C(C[C@@H]1CC[C@H]2[C@@H](COC[C@H](O)CN2C(=O)Nc2ccc(Cl)c(Cl)c2)O1)NCc1ccc(F)cc1
i,6.2,7.3,-0.4,CCCC#Cc1cnc2c(c1)C(=O)N([C@@H](C)CO)C[C@@H](C)[C@@H](CN(C)C(=O)c1ccccc1)O2
i,-1.4,2.6,-0.4,Cc1noc(C)c1NC(=O)Nc1cccc2c1O[C@@H](CN(C)C(=O)NC1CCCCC1)[C@@H](C)CN([C@@H](C)CO)C2=O
i,2.4,5.9,-5.8,CNC(=O)C[C@H]1CC[C@@H]2[C@H](COC[C@H](O)CN2S(=O)(=O)c2ccccc2Cl)O1
i,0.8,-0.5,-0.8,CC(C)NC(=O)N[C@H]1CC[C@@H](CC(=O)NC2Cc3ccccc3C2)O[C@H]1CO
i,-0.4,4.4,-1.2,C[C@H]1CN([C@@H](C)CO)C(=O)CCCn2cc(nn2)CO[C@@H]1CN(C)C(=O)CCCN(C)C
i,-1.6,5.6,2.1,C[C@H]1CN([C@@H](C)CO)C(=O)c2cc(-c3ccc(C#N)cc3)cnc2O[C@@H]1CN(C)CC1CCCCC1
i,0.1,-4.8,0.1,C[C@@H]1CN([C@H](C)CO)C(=O)CCCn2cc(nn2)CO[C@@H]1CN(C)S(=O)(=O)c1ccccc1F
i,-1.2,9.4,-1.8,COc1ccccc1-c1cn(CC[C@@H]2CC[C@H](NC(=O)C3CC3)[C@H](CO)O2)nn1
i,-15.5,-18.6,-4.2,COc1ccccc1CN1[C@H](CO)[C@@H]2c3ccccc3N(C(=O)C3CCCCC3)C[C@@H]21
i,-0.2,-7.7,-2.1,O=C(C[C@H]1CC[C@H](NS(=O)(=O)c2ccc(F)cc2)[C@@H](CO)O1)NCc1ccncn1
i,0.7,3.4,-0.7,COc1ccc(NC(=O)N[C@H]2CC[C@H](CC(=O)NC3CCC3)O[C@H]2CO)cc1
i,-1.4,-1.7,3.0,CCCNC(=O)C[C@H]1CC[C@H]2[C@H](COc3ccc(NC(=O)Nc4ccccc4F)cc3C(=O)N2C)O1
i,20.7,19.7,1.1,COc1cccc(C(CC2=CCCCC2)NC(=O)C(F)(F)F)c1 (stereo not drawn)
i,3.2,4.9,-0.1,C[C@@H]1CCCCO[C@@H](CN(C)S(C)(=O)=O)[C@@H](C)CN([C@H](C)CO)C(=O)c2cc(NC(=O)c3ccncc3)ccc2O1
i,2.2,-1.6,-1.6,O=C(C[C@H]1C[C@@H]2c3cc(NC(=O)C4CCC4)ccc3O[C@@H]2[C@@H](CO)O1)NCc1ccncc1
i,-0.2,0.3,-1.3,C[C@@H]1CN([C@H](C)CO)C(=O)c2cc(NC(=O)c3ccncc3)ccc2O[C@@H]1CN(C)C(=O)NC1CCCCC1
i,0.2,1.3,-1.0,C[C@@H]1CCCCO[C@H](CN(C)S(=O)(=O)c2ccc(Cl)cc2)[C@H](C)CN([C@@H](C)CO)C(=O)c2cc(NC(=O)NC3CCCCC3)ccc2O1
i,0.8,8.4,0.7,C[C@@H]1CN([C@H](C)CO)C(=O)Cc2cc(NS(C)(=O)=O)ccc2O[C@@H]1CN(C)C(=O)Nc1ccccc1
i,-2.9,0.2,4.9,Cc1ccc(S(=O)(=O)N(C)C[C@H]2Oc3cc(C#Cc4ccncc4)ccc3S(=O)(=O)N([C@@H](C)CO)C[C@@H]2C)cc1
i,2.5,1.5,1.9,COc1ccc(CN(C)C[C@H]2Oc3ccc(NC(=O)Nc4ccc(OC)cc4)cc3C(=O)N([C@@H](C)CO)C[C@H]2C)cc1
i,-2.8,-9.3,2.0,CCC(=O)N(C)C[C@@H]1Oc2ncc(C#CCC3CCCC3)cc2C(=O)N([C@@H](C)CO)C[C@H]1C
i,2.4,3.2,0.0,O=C(CCN1CCCCC1)NCC[C@@H]1CC[C@@H](NC(=O)c2ccc(F)cc2)[C@H](CO)O1
i,-2.4,7.1,-1.7,C[C@@H]1CCCCO[C@@H](CN(C)C(=O)Cc2ccccc2)[C@H](C)CN([C@@H](C)CO)C(=O)c2cc(NC(=O)CCCN(C)C)ccc2O1
i,-50.4,-49.6,-14.6,O=C(C[C@@H]1CC[C@H]2[C@@H](COC[C@@H](O)CN2C(=O)Nc2ccc(Cl)cc2)O1)NCCc1ccncc1
i,3.7,6.1,-1.4,CO[C@H]1CN(C)C(=O)c2ccc(NC(=O)C3CC3)cc2OC[C@@H](C)N(C(=O)c2ccncc2)C[C@@H]1C
i,2.8,5.8,-3.0,O=C(CN1CCOCC1)N[C@H]1CC[C@H](CCNC(=O)C2CCCC2)O[C@@H]1CO
i,-0.8,12.8,-1.7,Cc1ccc(S(=O)(=O)N(C)C[C@H]2Oc3ccc(NC(=O)c4ccncc4)cc3C(=O)N([C@H](C)CO)C[C@H]2C)cc1
i,-4.7,-2.4,-0.3,COc1ccc(NC(=O)Nc2ccc3c(c2)CC(=O)N([C@H](C)CO)C[C@H](C)[C@@H](CN(C)S(=O)(=O)c2ccc(C)cc2)O3)cc1
i,-2.8,-5.2,-1.8,C[C@H](CO)N1C[C@H](C)[C@@H](CN(C)C(=O)NC2CCCC2)Oc2ncc(C3=CCCCC3)cc2C1=O
i,1.0,0.1,0.0,C[C@H](CO)N1C[C@H](C)[C@H](CN(C)S(=O)(=O)c2cccc(C#N)c2)OCc2cn(nn2)CCCC1=O
i,1.8,-1.9,-0.4,CNC(=O)C[C@@H]1CC[C@@H]2[C@H](COC[C@H](O)CN2C(=O)c2ccc3c(c2)OCO3)O1
i,-0.8,2.5,-0.2,Cc1noc(C)c1S(=O)(=O)Nc1ccc2c(c1)CC(=O)N([C@H](C)CO)C[C@H](C)[C@H](CN(C)CC1CC1)O2
i,5.4,7.5,-0.9,C[C@@H]1CCCCO[C@H](CN(C)S(=O)(=O)c2cn(C)cn2)[C@H](C)CN([C@@H](C)CO)C(=O)c2cc(NS(=O)(=O)c3cn(C)cn3)ccc2O1
i,-1.1,3.2,0.2,CCS(=O)(=O)NCC[C@@H]1CC[C@@H](NC(=O)C2CCC2)[C@H](CO)O1
i,5.9,5.9,-0.8,C[C@H]1CN([C@@H](C)CO)C(=O)c2cc(C#CCc3ccccc3)cnc2O[C@H]1CN(C)Cc1cccnc1
i,-1.8,-6.7,-4.0,C/C=C/c1cnc2c(c1)C(=O)N([C@@H](C)CO)C[C@H](C)[C@@H](CN(C)C(=O)c1cccc(F)c1)O2
i,1.0,7.2,-1.8,C[C@H](CO)N1C[C@H](C)[C@H](CN(C)Cc2ccc(C(=O)O)cc2)OCCCC[C@H](C)Oc2ccc(NC(=O)CCC(F)(F)F)cc2C1=O
i,-0.9,-16.1,3.1,Cc1ccc(S(=O)(=O)N(C)C[C@H]2Oc3ccc(NS(=O)(=O)c4cccs4)cc3CC(=O)N([C@H](C)CO)C[C@H]2C)cc1
i,3.1,3.4,0.5,CCC(=O)N[C@H]1CC[C@H](CC(=O)OC)O[C@H]1CO
i,-7.5,-2.6,-0.6,C[C@@H]1CN([C@H](C)CO)C(=O)c2cc(NC(=O)CCCCCC(=O)Nc3ccccc3N)ccc2O[C@@H]1CN(C)S(=O)(=O)c1ccc(F)cc1
i,3.0,4.1,-5.0,C[C@H]1CN([C@@H](C)CO)C(=O)c2cc(C3=CCCC3)cnc2O[C@H]1CN(C)C(=O)C1CCC1
i,-10.7,-1.9,-0.4,CN(CCO)C(=O)c1nc[nH]c1C(=O)N1CCN(c2ccccc2)CC1
i,-50.0,-67.8,-12.2,O=C(C[C@H]1CC[C@H]2[C@@H](COC[C@H](O)CN2C(=O)Nc2ccc(Cl)cc2)O1)N1CCCCC1
i,-1.1,-4.0,1.5,CCC(=O)Nc1ccc2c(c1)OC[C@@H](C)N(C(=O)CC1CC1)C[C@@H](C)[C@H](OC)CN(C)C2=O
i,1.5,-1.2,-2.5,Cc1ccc(S(=O)(=O)N(C)C[C@@H]2Oc3ccc(NS(=O)(=O)c4ccc(F)cc4)cc3CC(=O)N([C@@H](C)CO)C[C@@H]2C)cc1
i,3.3,6.9,-1.6,C[C@H]1CN([C@@H](C)CO)C(=O)c2cc(/C=C/c3ccccc3)cnc2O[C@@H]1CN(C)C(=O)CN(C)C

(more compounds)
FGF22 binding,rRNA inh HTS,rRNA inh HTS OD600,rRNA inh HTS RFP,smiles
i,4.0,5.2,-3.0,CC(C)NC(=O)N(C)C[C@@H]1OCCCC[C@@H](C)Oc2ccc(NC(=O)C3CCCCC3)cc2C(=O)N([C@@H](C)CO)C[C@@H]1C
i,0.4,-1.1,0.2,C[C@@H]1CCCCO[C@@H](CN(C)CC2CC2)[C@H](C)CN([C@H](C)CO)C(=O)c2cc(NC(=O)c3ccccc3)ccc2O1
i,-6.0,-18.4,24.9,Cc1cc(Br)c2nc(-c3ccc(F)cc3)c(Cc3cccc(Cl)c3)n2c1
i,2.4,0.7,-1.5,CO[C@H]1CN(C)C(=O)c2cc(NC(=O)c3ccno3)ccc2OC[C@@H](C)N(S(C)(=O)=O)C[C@H]1C
i,5.9,19.9,-2.0,COCC(=O)Nc1ccc2c(c1)[C@@H]1C[C@@H](CC(=O)NCc3ccncc3)O[C@@H](CO)[C@@H]1O2
i,-6.0,-10.6,-0.8,CCNC(=O)Nc1ccc2c(c1)C(=O)N(C)[C@H]1CC[C@H](CC(=O)Nc3cccc(F)c3)O[C@@H]1CO2
i,-2.2,-7.7,8.0,C[C@H]1CN([C@@H](C)CO)C(=O)c2cc(C3=CCCCC3)cnc2O[C@H]1CN(C)Cc1cccc(F)c1
i,-1.9,-2.3,0.6,C[C@H]1CN([C@@H](C)CO)C(=O)c2cc(NC(=O)NC3CCCCC3)ccc2O[C@H]1CN(C)S(=O)(=O)c1cn(C)cn1
i,2.8,-0.2,0.4,Cc1ccc(S(=O)(=O)Nc2ccc3c(c2)C(=O)N([C@H](C)CO)C[C@H](C)[C@H](CN(C)C(=O)Nc2ccc4c(c2)OCO4)OCCCC[C@@H](C)O3)cc1
i,0.8,4.5,-0.6,O=C(C[C@H]1CC[C@@H](NC(=O)Cc2ccccn2)[C@@H](CO)O1)NCCCN1CCOCC1
i,0.2,4.4,2.4,CCCC#Cc1ccc2c(c1)O[C@@H](CN(C)C(=O)CC)[C@@H](C)CN([C@@H](C)CO)S2(=O)=O
i,-4.7,3.8,-3.1,C[C@H]1CN([C@@H](C)CO)C(=O)c2ccccc2-c2ccccc2CO[C@H]1CN(C)C(=O)CCN(C)C
i,-14.1,-27.3,17.7,C[C@@H]1CN([C@H](C)CO)C(=O)Cc2cc(NC(=O)Nc3ccc(F)cc3)ccc2O[C@H]1CN(C)Cc1ccccc1
i,3.5,1.9,-0.8,C[C@@H](NC(=O)C[C@@H]1C=C[C@@H](NC(=O)Cc2ccccn2)[C@H](CO)O1)c1ccccc1
i,11.3,10.6,-0.4,C[C@@H]1CN([C@@H](C)CO)C(=O)c2cc(Br)cnc2O[C@H]1CN(C)Cc1ccc2c(c1)OCO2
i,9.1,14.6,-3.8,CC(=O)O[C@H]1C=C[C@@H](NC(=O)OC(C)(C)C)C1
i,3.2,-0.2,1.6,Cc1noc(C)c1NC(=O)Nc1ccc2c(c1)C(=O)N([C@@H](C)CO)C[C@H](C)[C@H](CN(C)C)O2
i,1.7,-7.3,1.2,CCCNC(=O)N1C[C@@H](O)COC[C@H]2O[C@@H](CC(=O)NCc3ccncn3)CC[C@@H]21

Only rRNA inh HTS OD600, for some of the entries so far:
mol,rRNA inh HTS OD600
COCC(=O)Nc1ccc2c(c1)[C@@H]1C[C@@H](CC(=O)NCc3ccncc3)O[C@@H](CO)[C@@H]1O2,19.9
CCC(=O)N[C@H]1CC[C@H](CC(=O)OC)O[C@H]1CO,3.4
Cc1noc(C)c1NC(=O)Nc1ccc2c(c1)C(=O)N([C@@H](C)CO)C[C@H](C)[C@H](CN(C)C)O2,-0.2
COc1cccc(C(CC2=CCCCC2)NC(=O)C(F)(F)F)c1 (stereo not drawn),19.7
COC(=O)C[C@@H]1CC[C@@H]2[C@@H](COc3ccc(NC(=O)c4cnccn4)cc3C(=O)N2C)O1,6.0
